Compound activity: PubChem BioAssay, National Center for Advancing Translational Sciences (NCATS)
Menin-MLL FL inh: displaces fluorescein MLL peptide from human menin; 290,000 tested, under 10 active; Fluorescence polarization, fluorescein-MLL peptide displacement from menin; FP activity change, % at 61.4 µM; inconclusive = falling polarisation curve, or a change in total fluorescence; inactive = total fluorescence flat and polarisation flat or rising; no compound was filed as active; the % refers to the polarisation; negative = inhibition;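 also: % of control where 0% means no effect; inhibitors lower the polarisation; unlabelled MLL peptide was the positive control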
gsp agonist: gsp mutant agonism; Potency, µM (series often up to 76.9 µM), without a hit: top-dose activation (cAMP increase), actives largely listed as activators; AID 624287; gsp mutant cells, cAMP HTRF, 30 min; control for the full effect not named in the record; actives 0.13% (n = 340,000); active = well fitted activation curve with a large enough effect; inconclusive = small, poorly fitted or top-dose-only effect, or another doubt; inactive = no such curve, though single readings can be large or run the other way; cell line not stated here;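 also: phosphodiesterase inhibitor Ro 20-1724 added with compounds to block cAMP breakdown; potency is read from the fitted curve at half-maximal effect; nearly all actives have a fitted effect of over 60% in size; about a fifth of the inactives were tested at one dose only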
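Cells stably selected in G418 were plated at 2000/well, grown 16-24 hr, then given compounds in DMSO with the PDE inhibitor […] (300 uM solution added) for 30 min at 37C; cAMP was read by HTRF.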
gsp antagonist: gsp mutant antagonism | gsp-mutant cells, cAMP HTRF, 30 min; control for the full effect not named in the record | Potency, µM (titrated, usually from 76.9 µM), for inactives: at the highest dose activity change, negative = inhibition, usual class: inhibitors | actives 0.4% (n = 340,000) | AID 624288; active = falling curve of any shape with a large fitted effect; inconclusive = falling curve, mostly with a smaller effect; inactive = flat or rising curve; cell line not stated here;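 also: intracellular cAMP measured with PDE inhibitor Ro 20-1724 present during compound exposure; potency is read from the fitted curve at half-maximal effect; % is scaled to controls: 0 for no effect and ±100 for the full control effect; nearly all actives have a fitted effect of over 65% in size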
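G418-selected cells were plated in DMEM/10% FBS for 16-24 h at 37C, then treated with compounds plus the PDE inhibitor […] (300 uM solution added) for 30 min at 37C. Intracellular cAMP was measured by HTRF after 30 min lysis at room temperature.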
ClpP mod: qHTS Assay for Activators of ClpP | AID 651965, 2013 | purified B. subtilis ClpP, FRET peptide cleavage, 20 min | Potency, µM (doses to about 57.5 µM), inactives show top-dose activity change, negative = active | ATP-dependent Clp protease proteolytic subunit (Bacillus subtilis (strain 168)), P80244 | actives 1.9% (n = 340,000); active = well fitted falling curve with a large enough effect; inconclusive = small, poorly fitted or top-dose-only effect; inactive = no such curve, though single readings can be large or run the other way; also: potency is read from the fitted curve at half-maximal effect; the source files actives as falling curves though it sought activators and does not explain the sign; nearly all actives have a fitted effect of over 65% in size; many hits overshoot -100%
Target sequence (P80244 whole entry, looked up): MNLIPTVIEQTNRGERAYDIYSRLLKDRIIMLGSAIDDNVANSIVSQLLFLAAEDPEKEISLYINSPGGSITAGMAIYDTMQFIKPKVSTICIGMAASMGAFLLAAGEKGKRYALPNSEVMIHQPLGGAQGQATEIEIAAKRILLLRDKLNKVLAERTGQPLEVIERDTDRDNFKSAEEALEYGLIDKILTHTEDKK
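ClpP 10 microg/mL final, pH 8 Tris/KCl buffer with BSA, glycerol, Tween-20; compound pinned in; FRET-FV substrate; RT 20 min; Ex320/Em430; ΔFRET vs ADEP 5.8 microM, DMSO, no enzyme.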
TRPML1 agonist: agonists of human TRPML1 channel; TRPML1-expressing cells, Ca2+ dye fluorescence, FDSS; host cell line not named in the record; reference of the full effect not given here; activation, % (concentration not given with the values); actives 0.12% (n = 410,000); in the data active = activation above about 50%; inconclusive = about 30% to 50%; inactive = below about 30%; also: 0% is about no effect; the text of the record puts the active cut at 80%
Target sequence (Q9GZU1 whole entry, looked up): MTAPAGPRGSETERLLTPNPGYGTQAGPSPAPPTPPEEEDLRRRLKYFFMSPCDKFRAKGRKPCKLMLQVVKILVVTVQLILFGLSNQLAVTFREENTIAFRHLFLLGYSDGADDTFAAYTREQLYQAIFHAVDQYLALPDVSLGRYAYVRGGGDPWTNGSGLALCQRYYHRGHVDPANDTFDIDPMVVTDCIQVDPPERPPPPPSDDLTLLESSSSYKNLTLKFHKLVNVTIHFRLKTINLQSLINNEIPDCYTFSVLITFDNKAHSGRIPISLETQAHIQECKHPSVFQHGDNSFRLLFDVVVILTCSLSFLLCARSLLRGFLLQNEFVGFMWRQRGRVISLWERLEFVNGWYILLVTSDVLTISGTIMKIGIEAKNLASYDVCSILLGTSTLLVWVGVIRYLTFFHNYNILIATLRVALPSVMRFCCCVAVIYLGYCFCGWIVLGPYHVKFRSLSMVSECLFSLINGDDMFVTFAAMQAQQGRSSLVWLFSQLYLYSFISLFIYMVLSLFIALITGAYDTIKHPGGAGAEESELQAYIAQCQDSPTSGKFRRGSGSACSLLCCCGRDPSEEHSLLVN
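Tetracycline-induced TRPML1-DL cells are seeded and incubated overnight before loading with a no-wash Ca2+ dye and quencher. Agonist activity is taken from the 110 s fluorescence read following compound pin-transfer on an FDSS, before EC80 54-4 challenge.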
TRPML1 inh: inhibitors of human TRPML1 channel | Q9GZU1 | TRPML1-inducible cells, Ca2+ dye fluorescence, FDSS; active compounds read low; inhibition of EC80 agonist-evoked calcium signal | activity change, negative = inhibition, % (concentration not given with the values) | actives 0.02% (n = 390,000); in the data active means activity change below about -50%; inconclusive means about -30% to -50%; inactive means above about -30%;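 also: stimulus is agonist 54-4 at its EC80 concentration; % is scaled to controls: 0 for no effect and ±100 for the full control effect; the text of the record puts the active cut at -80%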
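Tet-induced TRPML1-DL cells loaded with Ca8 no-wash calcium dye were read kinetically on FDSS. Compound addition was followed by EC80 agonist 54-4 (4 uM final); inhibition was read over 110 s.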
The depositor's hits bear a star; ? = inconclusive; · = not tested or not shown; [ ] = dose if it differs, or a comment.

Molecule	ClpP mod	gsp antagonist	Menin-MLL FL inh	TRPML1 agonist	TRPML1 inh	gsp agonist
COc1ccccc1CN1CCN(Cc2ccco2)CC1	-0.5%	4%	-12	-1.0	-11	15%[15.4 µM]
Cc1[nH]nc(NCCO)c1[N+](=O)[O-]	2.7%	14%	5.8	-0.3	12	15%[15.4 µM]
Cc1nn(C)c(C)c1CNC(=O)c1nn2c(c1Cl)NC(c1cccs1)CC2C(F)(F)F (configuration not stated)	-0.5%	?	5.0	1.8	13	-1%
CN(C)CC(=O)c1c(N)n(Cc2ccccc2)c(=O)n(C)c1=O	·	-36%	-1.0	0.0	49	22%[15.4 µM]
COc1ccc(S(=O)(=O)N2CCCCCC2)cc1NC(=O)CN1C(=O)NC(C)(c2ccc(C)cc2)C1=O (configuration not stated)	-0.8%	-26%	·	1.2	3	-3%
O=C(NCc1ccccc1)c1ccc(CS(=O)(=O)c2c(Cl)cccc2Cl)o1	-5.1%	·	·	0.3	-6	·
CCOC(=O)c1cc(-c2ccccc2C)n(CC2CC(c3cccc([N+](=O)[O-])c3)=NO2)n1 (configuration not stated)	-0.9%	-20%	·	1.3	6	-48%[inhibitor]
Cc1cc(C)c(OCC(=O)OC(C)C(=O)NC2CC2)c(C)c1 (configuration not stated)	0.2%	-6%	·	0.1	2	0%
COc1ccc(C)cc1NS(=O)(=O)c1ccc(Cl)nc1	0.9%	7%	·	1.9	26	-12%
COc1ccc2c(c1)C1NC(=S)NC(C)(O2)C1C(=O)Nc1ccc(C)cc1C (configuration not stated)	-1.4%	-3%	5.5	-0.2	2	-21%[15.4 µM]
O=C(Nc1ccccc1)c1ccc(-c2ccc(Br)cc2)o1	-4.3%	7%	5.4	2.2	4	?
O=C(CCC(=O)Nc1ccc(Oc2ccccc2)cc1)NCCO	-1.2%	18%	0.0	-0.8	-4	-45%[inhibitor]
CN(C(=O)c1cccc(NC(=O)Cc2ccc(NC(=O)C3CCN(C(=O)C4CCCC4)CC3)cc2)c1)C1CCC1	0.3%	6%	·	2.0	-8	·
CC1CCC2(CC1)NC(=O)N(CC(=O)Nc1sc3c(c1C(N)=O)CCC3)C2=O (configuration not stated)	-14%	-18%	?	3.1	47	-20%
O=C(OCC(=O)N1CCc2ccccc21)c1c2c(nc3ccccc13)CCCCC2	-4.6%	?	·	-0.3	7	-55%[inhibitor]
Cn1c(=O)oc2cc(S(=O)(=O)NCCC(=O)NC3CCCc4ccccc43)ccc21 (configuration not stated)	-1.5%	-10%	-0.4	0.9	-13	3%
Cn1cnnc1SCC(=O)NCCC1=CCCCC1	-7.4%	12%	·	1.9	10	8%
O=C(CSc1nnc(-c2ccncc2)n1Cc1ccco1)Nc1nc(-c2ccccc2)cs1	0.9%	35µM*	4.8	0.4	3	-7%
O=C1CCCC(O)=C1C1NCCc2ccccc21 (configuration not stated)	0.5%	-11%	-15	0.4	32	-3%
C=CCn1c(N)c(-c2nc3ccccc3n2C)sc1=S	-17%	1%	0.5	0.7	17	14%
O=C(Nc1cccc(-c2cn3ccccc3n2)c1)c1cc2ccccc2oc1=O	37%	1%	16	0.8	27	14%
Nn1c(COc2ccccc2F)nnc1SCC(=O)NC1CCCC1	-3.0%	9%	2.6	0.8	12	2%
CC1CC1C(=O)Nc1nc(-c2cccs2)c(-c2cccs2)s1 (configuration not stated)	?	0%	3.5	-0.2	-6	23%
CCN(CC)S(=O)(=O)c1cccc(-c2n[nH]c(=S)n2C)c1	·	-4%	-1.8	-0.5	-10	4%
Cc1c(CC(=O)NCCCO)c(=O)oc2cc3c(cc12)CCC(C)(C)O3	4.2%	3%	-3.8	-0.4	13	11%
Cc1ccc(-c2nc3ccccn3c2Nc2ccc3c(c2)OCCO3)o1	4.1%	·	·	0.6	8	·
CCOc1ccc(S(=O)(=O)NCCC(=O)NCCCSc2ccccc2)cc1	-1.8%	-7%	·	1.6	10	-12%
CC1Nc2ncnc(N3CCc4ccccc4C3)c2N(Cc2ccc(Cl)cc2)C1=O (configuration not stated)	-3.3%	-5%	·	1.0	-3	·
CCCN(CCC)CCCNC(=O)c1cnn(-c2ccc(F)cc2)c1-n1cccc1	-0.1%	·	·	0.5	39	·
Cc1ccc(S(=O)(=O)NCCc2ccccc2)cc1	2.6%	-5%	-1.1	1.1	-16	-16%
Cc1nn(CCC(=O)NCc2ccc(OC(C)C)cc2)c(=O)c2nn(-c3ccccc3)c(C)c12	-0.8%	?	·	1.5	13	17%
O=C(Nc1ncn[nH]1)c1cc(S(=O)(=O)Nc2cccc(C(F)(F)F)c2)ccc1Cl	-0.8%	2%	-1.5	0.3	19	3%[15.4 µM]
CCOC(=O)N1CCN(C(=O)CNC(=O)c2ccc(Br)cc2)CC1	1.0%	-8%	·	-0.6	-7	3%
CNC(=O)c1cccc(NC(=O)C(C)c2ccc3cc(OC)ccc3c2)c1 (configuration not stated)	·	-8%	1.2	0.1	-2	11%[15.4 µM]
C[C@H]1COC(=O)[C@H](Cc2ccc(F)cc2)C/C=C\C[C@H](CC(=O)NCCO)C(=O)N1	2.2%	10%	·	-0.4	20	-26%
Cc1ccc(N/C(CSC(N)=O)=N/S(=O)(=O)c2ccccc2)cc1	1.4%	10%	2.4	0.0	-13	6%
CCOC(=O)c1c(C)[nH]c(C(=O)CN2CCOCC2)c1C	-1.5%	7%	-0.9	0.3	3	-15%
COc1ccc2oc(N)c(C=O)c(=O)c2c1	·	6%	5.6	2.1	4	2%[15.4 µM]
CCCC(=O)N/C(N)=N/c1nc(C)c2ccccc2n1	·	6%	0.2	2.1	-3	10%[15.4 µM]
N#C/C=C(/N)c1ccc(Br)cc1	2.2%	2%	1.0	2.1	-22	17%
COCc1cc(C)nc2sc(C(=O)NN)c(-n3cccc3)c12	·	-11%	-2.1	-0.6	8	7%[15.4 µM]
NC(=S)NNc1c(F)c(F)c(F)c(F)c1F	·	4%	-0.7	-0.6	3	26%[15.4 µM]
CCOc1ccc(CC(=O)N2N=C(C)CC2(O)C(F)(F)F)cc1 (configuration not stated)	0.6%	8%	5.5	-0.4	18	-51%
Cc1ccccc1NC(c1cccc(Cl)c1)c1nnnn1C1CCCCC1 (configuration not stated)	-0.2%	13%	0.7	-1.3	-3	-21%
COc1ccc(-c2[nH]c(-c3ccc(C)cc3)nc2SCC(=O)NC2CCCC2)cc1	3.6%	-25%	4.9	-0.4	-17	12%

Entries of single compounds, looked up by structure:
Record of `CCOC(=O)c1c(C)[nH]c(C(=O)CN2CCOCC2)c1C` : ClpP mod: -1.5%; gsp antagonist: 7%; Menin-MLL FL inh: -0.9; TRPML1 agonist: 0.3; TRPML1 inh: 3; gsp agonist: -15%
Record of `N#C/C=C(/N)c1ccc(Br)cc1` : ClpP mod: 2.2%; gsp antagonist: 2%; Menin-MLL FL inh: 1.0; TRPML1 agonist: 2.1; TRPML1 inh: -22; gsp agonist: 17%

Next part
Molecule	ClpP mod	gsp antagonist	Menin-MLL FL inh	TRPML1 agonist	TRPML1 inh	gsp agonist
CNC(=S)N1CCc2cc(OC)c(OC)cc2C1COc1ccc(OC)cc1 (configuration not stated)	·	-15%	-0.1	1.6	49	-2%[15.4 µM]
CSCCC(NC(=O)c1ccccc1Br)C(=O)NNC(=O)c1cc(C)oc1C (configuration not stated)	0.0%	15%	·	-0.2	0	?
CS(=O)(=O)N1CCC(C(=O)Nc2cccc([N+](=O)[O-])c2)CC1	0.2%	4%	2.0	0.5	-8	-29%
CCC(c1nnc(SCC(=O)Nc2cccnc2Cl)n1-c1ccccc1)N(C)C (configuration not stated)	·	-4%	-1.1	0.6	-13	11%[15.4 µM]
CCN(CC)C(=O)CSc1nnc(CNc2ccc(F)cc2)o1	-2.3%	-1%	-1.6	0.0	-11	10%
CNC(=O)CSc1nnc(-c2ccccc2)n1C	0.7%	1%	-3.5	0.1	12	18%
Cc1cc(C)c(C)c(OCCN2CC(C)OC(C)C2)c1 (configuration not stated)	2.4%	21%	0.1	0.6	-2	-26%
CC(=O)NNC(=O)CCn1nnc(-c2ccc(Cl)cc2)n1	5.2%	10%	-9.0	0.1	0	-2%[15.4 µM]
COc1ccc(C)cc1NC(=O)Cc1ccc(NC(=O)N2CCCCc3ccccc32)cc1	-1.4%	·	·	-0.7	12	·
O=C(CCn1c(=O)c2ccccc2n(CC(=O)Nc2cccc(F)c2)c1=O)NCCc1ccccc1	-2.6%	·	·	-0.7	5	·
O=C(N/N=C/c1cccc(O)c1)c1cc(-c2ccccc2)nc2ccccc12	-2.6%	-17%	-3.9	0.1	6	30%
Cc1cnc(NC(=O)C2CCCC2)s1	-8.7%	2%	5.7	-0.3	-1	-7%
COc1ccc([C@@H]2OC2(C(N)=O)C(N)=O)cc1	-0.3%	3%	3.0	·	·	-37%
CC(C)Oc1ccc(C(=O)Nc2cccc3cccnc23)cc1	-0.7%	-6%	0.4	0.2	2	?
COc1cc2c(cc1OC)CN(C(=S)Nc1ccc(Cl)cc1)CC2	2.3%	-1%	-1.4	5.3	3	-28%
COc1cc(CN(CCN(C)C)Cc2ccccc2)ccc1OCc1ccccc1	0.3%	14%	1.7	0.1	64	-3%[15.4 µM]
CC(C)NC(=O)C(=O)NNC(=O)CCc1ccccc1	·	11%	2.2	-0.1	27	-2%[15.4 µM]
CCC(O)CNC(=O)NC(=C(Cl)Cl)c1ccc(C)c(F)c1 (configuration not stated)	-2.9%	0%	3.3	1.0	7	-1%
CCC1CN(C(=O)N2CCC(C(=O)NCc3cccs3)CC2)c2cc(C)ccc2O1 (configuration not stated)	0.4%	·	·	0.8	?	·
C[C@H]1CN([C@@H](C)CO)C(=O)c2cccc(NS(=O)(=O)c3cn(C)cn3)c2O[C@H]1CN(C)S(C)(=O)=O	-2.8%	16%	·	-0.4	-6	3%
NC(=O)c1ccccc1NS(=O)(=O)c1ccccc1	28µM*	-1%	3.1	-0.2	7	-18%
O=C1CC(C(=O)Nc2cc(Cl)ccc2Cl)n2ncnc2N1 (configuration not stated)	0.4%	10%	?	-0.9	-3	9%
CC1(c2ccc3c(c2)OCO3)NC(=O)N(CC(=O)Nc2ccc(N3CCOCC3)cc2)C1=O (configuration not stated)	-1.6%	2%	2.1	-1.2	24	29%
O=C(NNC(=O)c1ccc(Cl)cc1Cl)Nc1ccccc1	-0.8%	7%	1.7	-0.8	-12	?
CCOc1ccccc1/C=C\c1nc(O)c([N+](=O)[O-])c(=O)[nH]1	0.7%	11%	1.2	-0.5	18	25%
COc1ccc(NC(=O)NCc2ccncc2)c(OC)c1	-3.3%	2%	1.4	0.4	-1	19%
CCNC(=O)/C(C#N)=C/c1c(N(Cc2ccccc2)Cc2ccccc2)nc2ccccn2c1=O	-4.7%	-26%	0.1	-0.3	?	9%
